# Screens from PubChem.
# fixLJ activator: activators of Burkholderia fixLJ two-component system, primary screen, B. multivorans, GFP reporter. B. multivorans fixK-promoter GFP reporter, 18 h; active compounds read high. actives 0.3% (n = 29,000). z-score (no concentration beside the values). AID 1918990, 2023;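 active means replicate mean overnight rise in green fluorescent reporter signal, 3 or more SD over negative controls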;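 further: score is relative to vehicle wells of the plate; 300 nL library stock went into each well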
# * = called active by the depositor; & = joins results of further samples. Only part of the results is shown; count on the stated rates, not on these rows.
SMILES,fixLJ activator
CCc1nc2ccccc2n1C(CC)C(=O)NCc1ccccn1 (configuration not stated),-0.59
COc1ccc(CCNC(=O)c2cc(Nc3cc(C)cc(C)c3)nc3ccccc23)cc1OC,2.4
Cc1ccncc1C(=O)N1CC2c3ccccc3OC[C@]2(C(=O)O)C1 (some centres not stated),-0.25
CC(C)n1ccnc1CN1CCn2nc(CNC(=O)C3CCC3)cc2C1,-0.03
O=C(C1CCCO1)N1CCC(c2n[nH]c(=O)n2Cc2ccccc2)CC1 (configuration not stated),-0.34
CC(C(=O)O)c1cccc(C(=O)c2ccccc2)c1 (configuration not stated),-1.8&-0.07
COc1ccccc1NC(=O)CN(c1cc(C)cc(C)c1)S(=O)(=O)c1c(C)[nH]c(=O)[nH]c1=O,0.27
COc1cccc(C2CC(=O)Nc3cc(OC)c(OC)c(OC)c32)c1OC(C)C (configuration not stated),-0.62
COc1ccc(NC(=O)COc2ccc(S(=O)(=O)NC3CCCCC3)cc2)c(OC)c1,-1.6
COc1ccc(S(=O)(=O)N(Cc2nc(-c3ccccc3)no2)C2CCCCC2)cc1,-0.03
CCOC(=O)c1c(-c2ccc(C)cc2)csc1NC(=O)c1cc(=O)c2cc(C)c(C)cc2o1,-0.84
Cn1cnc(-c2nc(C3CC(c4ccccc4)N4CCC[C@@H]34)no2)c1 (some centres not stated),1.5
O=C(CCc1n[nH]c2c1CCCC2)N1CC2CCN(C(=O)C3CC3)C2C1 (configuration not stated),0.33
CCOc1ccc(-c2nn(-c3ccccc3)cc2C2NC(=O)NC(C)=C2C(=O)OC(C)C)cc1 (configuration not stated),0.18
Cc1nc2scc(C)n2c(=O)c1S(=O)(=O)NCCc1ccccc1,0.3
CCCCOc1cccc(C(=O)Nc2ccc3oc(-c4cccnc4)nc3c2)c1,-1.7
CCOc1ccc(CN2C(=O)c3ccccc3Sc3ccc(C(=O)NCc4ccc(C)cc4)cc32)cc1,1
Cc1oc(-c2ccccc2F)nc1Cn1c(SCc2cccc(C(F)(F)F)c2)nc2ccncc21,0.3
COc1ccc(Cl)cc1NC(=O)Cn1c(=O)c2ccccc2n2nncc12,-0.16
Cc1cc(Br)ccc1NC(=O)C(Cc1ccccc1)NS(=O)(=O)c1ccc(Br)s1 (configuration not stated),-0.42
Cc1ccccc1Nc1c(-c2ccco2)nc2c(C)cccn12,-1.9
COc1ccc(CCNC(=O)CCCCn2c(=O)c3ccccc3n(Cc3cc(C)ccc3C)c2=O)cc1OC,-1.7
CCC(=O)Nc1sc2c(c1C(=O)Nc1ccc(OC)cc1)CCC(C(C)(C)C)C2 (configuration not stated),-2.3
CCN(CC)S(=O)(=O)c1ccc(-c2csc(=Nc3cccc(C(F)(F)F)c3)n2Cc2ccc3c(c2)OCO3)cc1,0.75
Cc1ccc(-c2nnc(Nc3ccc(C(N)=O)cc3)c3ccccc23)cc1S(=O)(=O)N1CCCCC1,1

# Rewritten as tab-separated lines: entries from further up
compound	fixLJ activator
CCOc1ccc(-c2nn(-c3ccccc3)cc2C2NC(=O)NC(C)=C2C(=O)OC(C)C)cc1 (configuration not stated)	0.18
Cc1nc2scc(C)n2c(=O)c1S(=O)(=O)NCCc1ccccc1	0.3
CCCCOc1cccc(C(=O)Nc2ccc3oc(-c4cccnc4)nc3c2)c1	-1.7
CCOc1ccc(CN2C(=O)c3ccccc3Sc3ccc(C(=O)NCc4ccc(C)cc4)cc32)cc1	1
Cc1oc(-c2ccccc2F)nc1Cn1c(SCc2cccc(C(F)(F)F)c2)nc2ccncc21	0.3
COc1ccc(Cl)cc1NC(=O)Cn1c(=O)c2ccccc2n2nncc12	-0.16
Cc1cc(Br)ccc1NC(=O)C(Cc1ccccc1)NS(=O)(=O)c1ccc(Br)s1 (configuration not stated)	-0.42

# Returning to the listing; the 2 compounds before the break are reprinted first.
SMILES,fixLJ activator
CCN(CC)S(=O)(=O)c1ccc(-c2csc(=Nc3cccc(C(F)(F)F)c3)n2Cc2ccc3c(c2)OCO3)cc1,0.75
Cc1ccc(-c2nnc(Nc3ccc(C(N)=O)cc3)c3ccccc23)cc1S(=O)(=O)N1CCCCC1,1
O=C(COC(=O)c1cc(-c2ccccc2)nc2ccccc12)c1ccc(Br)cc1,-4.1
CC(=O)c1ccc(NC(=O)N2CCC3C(C2)OCc2cnnn23)cc1 (configuration not stated),-0.39
CCn1c(C)c(C2N3CC4(C)CN2CC(CC)(C3)C4=O)c2ccccc21 (configuration not stated),1.7
COc1ccccc1NC(=O)C1=C(C)Nc2nc(SCc3ccccc3F)nn2C1c1cccs1 (configuration not stated),-0.4
COc1ccc(Cn2nc(C)cc2NC(=O)N(C)C)cc1OC,0.13
CC(=O)c1cccc(NS(=O)(=O)c2cccc(S(=O)(=O)c3ccc(Br)cc3)c2)c1,-2
Cc1ccc(CCNC(=O)C2CCN(Cc3nc(-c4ccccc4C)oc3C)CC2)cc1,-1.6
O=C(C1CCCN(S(=O)(=O)c2cccc3nonc23)C1)N1CCN(c2ccccc2F)CC1 (configuration not stated),-0.78
Cc1ccc(C)c(Cn2c(C)c(CNCc3ccc(F)cc3)c(C(=O)O)c2C)c1,-1.6
CCCC(=O)NC(C)c1nc2ccccc2n1Cc1ccccc1 (configuration not stated),-2.7
COc1ccc(-c2nc(SCC(=O)Nc3ccccc3)c(-c3ccc(F)cc3)[nH]2)cc1OC,-1.2
Cc1ccc(C(=O)N2CCC(C(=O)NC(CO)CC3CCCCC3)CC2)cc1 (configuration not stated),-1
Cc1ccc(S(=O)(=O)c2cn(Cc3ccc(F)cc3)c3cc(F)c(F)cc3c2=O)cc1,-0.43
Cc1ccc(CN(C(=O)c2ccccc2Br)C2CCS(=O)(=O)C2)o1 (configuration not stated),-1.7
CCOc1cccc(CN(CCO)C(=O)NC2CCc3ccccc3C2)c1 (configuration not stated),0.5
COc1ccc(C(=O)NC2COCC2Cc2ccncc2)cc1OC (configuration not stated),-0.96
CC(C)c1ccc(NC(=O)CCS(=O)(=O)c2cccc3nonc23)cc1,-0.13
Cc1ccc(C)c(N2CCN(C(=O)CCc3c(C)nc4c(c3C)c(=O)n(C)c(=O)n4C)CC2)c1,-0.59
Cc1cc(C(F)(F)F)nc(CCNC(=O)c2nsnc2C)n1,-1.3
CC(C)c1ccc(NC(=O)C2CCN(S(=O)(=O)c3ccc(Br)s3)CC2)cc1,-1.5
Cc1ccc2nc(CCNC(=O)CCCC(=O)c3ccccc3)[nH]c2c1,-1.3
CC(=O)N1CCc2c(sc3c2c(=O)n(-c2ccccc2C)c(=O)n3CC(=O)c2ccccc2)C1,-0.73
COC(=O)c1ccccc1NC(=O)c1sc2nc(C)cc(C)c2c1NC(=O)c1ccccc1Cl,-1.5
Cc1[nH]c2ccccc2c1SCCNC(=O)c1ccc(F)cc1,-1.2
C=CCC(CC=C)(CNC(=O)C(=O)Nc1cccc(C(F)(F)F)c1)c1ccccc1,3.7*
# Next entries
SMILES,fixLJ activator
COc1ccc(OC)c(NC(=O)Cc2c(C(=O)O)n(C)c3ccc(C)cc23)c1,0.69
Cc1c2cnn(CC(=O)NCc3ccccc3)c(=O)c2c(C)n1Cc1cccc(Cl)c1,0.25
O=C(c1ccc2c(c1)N(Cc1ccc(Cl)cc1)C(=O)c1ccccc1S2=O)N1CCCCC1 (configuration not stated),-0.55
Cc1ccccc1S(=O)(=O)Cc1ccc(C(=O)NCc2ccccc2Cl)o1,-0.66
O=C(O)COc1ccc(Cl)cc1CN1CCC(C(O)c2cccs2)CC1 (configuration not stated),2
Cc1ccc(OC(C)(C)C(=O)N2CC[C@@]3(CO)CCCN(C)[C@@H]3C2)cc1,1.4
Cn1c(=O)c2c(-c3ccc(Cl)cc3)n(Cc3ccccc3)cc2n(C)c1=O,-1.1
Cc1ccc(Cn2cc(C(=O)c3ccc4c(c3)OCO4)c(=O)c3cc(C)ccc32)cc1,-0.63
COc1cccc(OCc2nc(-c3cccs3)no2)c1C,-1.4
CCOc1ccccc1C1CC(=O)NC(C)=C1C(=O)OCc1ccc(C)cc1 (configuration not stated),-0.28
COc1ccnc(CN2C[C@@H]3COCC[C@@]3(O)[C@H]3COCC[C@@H]32)c1OC,-0.3
O=C(Cn1c(-c2cccs2)cc2cc(F)ccc21)NCCc1ccc(Cl)cc1,-0.79
CCOC(=O)c1c(NC(=O)COc2ccc(F)cc2)sc2c1CCC(C)C2 (configuration not stated),0.48
CCOC(=O)C1CCCN(C(=O)Cn2ncc3c4ccccc4n(Cc4ccc(F)cc4)c3c2=O)C1 (configuration not stated),1.4
Cc1cc(C)n(CCc2nc3c4ccccc4nc(N4CCN(c5cccc(C)c5C)CC4)n3n2)n1,-1.6
CC(NC(C)(C)C)C(=O)c1cccc(Cl)c1 (configuration not stated),-1.4&-0.41
Cn1nc(-c2ccc(OCC(=O)Nc3ccccc3)cc2)c2ccccc2c1=O,-2.3
CCOC(=O)c1c(C)c(-c2ccccc2)n(CC(=O)NC2CCCCCC2)c1C,-0.96
Cc1ccc(C)c(Nc2nn3c(=O)c4cc5c(cc4nc3s2)OCO5)c1,0.4
Fc1ccc([C@@H]2Nc3ccccc3[C@@H]3C=CC[C@@H]32)cc1,1.2
O=C1CN(C(=O)COc2ccccc2)C(c2ccc(F)cc2)c2cc(Br)ccc2N1 (configuration not stated),-2.1
Cc1ccc(-n2c(=O)c3ccc(C(=O)NCc4ccco4)cc3n(Cc3ccccc3Cl)c2=O)cc1,-0.1
Cc1ccc(S(=O)(=O)c2nc(S(=O)(=O)c3ccc(C)cc3)c(NCCCOC(C)C)s2)cc1,1.7
COc1ccc(CN(C(=O)Cc2coc3ccc(C)cc23)C2CCS(=O)(=O)C2)cc1 (configuration not stated),-1.1
Cc1ccc(NC(=O)c2cc3c(=O)[nH]c4ccccc4c3n2C)cc1F,0
# Next section
SMILES,fixLJ activator
Cc1cc(C)c2oc(-c3cccc(NC(=O)c4cc5ccccc5o4)c3)nc2c1,-1.1
CCOC(=O)c1cccc(NC(=O)C2=C(C)C(=O)OC23CCCCC3)c1,-1.8
Cc1ccc(S(=O)(=O)c2nc(-c3ccco3)oc2SC(C)C)cc1,-1.1
CCC(C(=O)Nc1cc(C)ccc1OC)n1nnc(C(=O)OC)c1C(=O)OC (configuration not stated),-0.88
Cc1nc(N)ncc1C(=O)N(C)Cc1cn[nH]c1-c1ccccc1,-0.18
Nc1nc(/C(=C/CC(=O)O)C(=O)N[C@@H]2C(=O)N3C(C(=O)O)=CCS[C@H]23)cs1,-9.8
O=S(=O)(Cc1cccc(Cl)c1)N(Cc1ccncc1)CC1CCCO1 (configuration not stated),-0.17
O=C(NC1CCCC1)c1ccc(CSc2nc3ccncc3n2Cc2cccc(F)c2)cc1,-7.9
COc1ccc(CNCc2c(C(=O)O)c(C)n(Cc3ccccc3C)c2C)c(OC)c1,-1.3
O=C1CC(c2ccc(Cl)cc2)c2cc3c(cc2N1)OCCO3 (configuration not stated),-1.9
COc1ccc(C(=O)N2CC[C@@]3(C(=O)O)CCCN(C)[C@H]3C2)c(OC)c1,-4.4
COc1ccc(-c2cc(C(F)(F)F)nc(SCC(=O)Nc3ccc(C(C)=O)cc3)n2)cc1,-0.96
C[C@]12CC[C@@H]3c4ccc(O)cc4C[C@@H](CCCCCCCCCS(=O)CCCC(F)(F)C(F)(F)F)[C@H]3[C@@H]1CC[C@@H]2O (some centres not stated),-1.4
CCc1nc(C)cn1S(=O)(=O)c1ccc(Cl)c(Cl)c1OC,0.92
Cc1cccc(CCn2c(=O)c3ccccc3n(Cc3cccc(F)c3)c2=O)c1,0.8
CCOc1ccc(C(=O)NCc2nc(-c3ccc(Cl)cc3)no2)cc1OCC,-3.3
CCc1nonc1NC(=O)c1oc2ccc(Br)cc2c1C,-1.8
COc1cccc(C(=O)N2CCN3CCCC3C2)c1OCCCN (configuration not stated),-1.3
CCSc1ncc(Cl)c(C(=O)Nc2c(C(=O)c3ccc(C)c(F)c3)oc3ccccc23)n1,1
Cc1ccc(OCC(=O)Nc2ccc3[nH]c(=O)sc3c2)cc1,0.56
CC(C)NCC(O)COc1cccc2[nH]ccc12 (configuration not stated),-0.39&-0.12
Cc1ccc(Cl)cc1NC(=O)CCS(=O)(=O)c1ccc2c(c1)n(C)c(=O)c(=O)n2C,0.88
COC(=O)c1nnn(-c2cccc(C)c2)c1N,-1.6
CC(=O)N1CCCC(C(=O)N(C)Cc2cnc3ccccc3n2)C1 (configuration not stated),-0.84
COc1ccc(-n2c3c(c(=O)[nH]c2=O)C(NC(=O)c2ccccc2Cl)(C(F)(F)F)C(=O)N3)cc1 (configuration not stated),-2.1
# More structures
SMILES,fixLJ activator
CCOC(=O)c1ccc(NC(=O)c2nc(SC(C)C)ncc2Cl)cc1,2.5
COc1ccc(NC(=O)CSc2nc(-c3ccccc3)c3ccccc3n2)cc1,-1.5
Cc1ccc(CNC(=O)c2ccc(Cn3c(=O)c4ccccc4n(CC(=O)Nc4ccc(C)cc4)c3=O)cc2)cc1,0.49
CSc1ccc(CCNC(=O)c2cc3c(-c4ccccc4F)nn(C)c3s2)cc1,2.6
Fc1ccc(-c2cn3cc(Cc4ccc(Cl)cc4)sc3n2)cc1,-2.5
CCOCc1cc(CN2CCN(c3ccccc3OC)CC2)c(O)c2ncccc12,1.8
CCCCCn1c(-c2cccc(C)c2)nc2ccccc21,-2.5
CC(=O)Nc1ccc(NC(=O)c2cc(=O)c3ccccc3o2)cc1,-0.34
CC(C)C(=O)N1CCC[C@@]2(CN(CCCS(=O)(=O)N(C)C)CCC2O)C1 (some centres not stated),0.1
CC[C@H]1OC(=O)[C@H](C)[C@@H](O[C@H]2C[C@@](C)(OC)[C@@H](O)[C@H](C)O2)[C@H](C)[C@@H](O[C@@H]2O[C@H](C)C[C@H](N(C)C)[C@H]2O)[C@](C)(O)C[C@@H](C)[C@@H]2N[C@@H](COCCOC)O[C@H]([C@H]2C)[C@]1(C)O,-1
CCc1ccc2c(c1)NC(c1ccc(F)cc1)=NC(c1ccncc1)=N2,1.4
